Bioassay records deposited in PubChem BioAssay by National Center for Advancing Translational Sciences (NCATS).
GCN5L2 inh = GCN5L2 (KAT2A) acetyltransferase inhibition; actives 0.21% (n = 390,000); Potency, µM (doses to about 58.9 µM), inactives show top-dose activity change, negative = inhibition, usual class: inhibitors; Q92830; GCN5L2 HAT assay, ThioGlo1 CoA-SH fluorescence; AID 504327
Target sequence (Q92830 whole entry, looked up): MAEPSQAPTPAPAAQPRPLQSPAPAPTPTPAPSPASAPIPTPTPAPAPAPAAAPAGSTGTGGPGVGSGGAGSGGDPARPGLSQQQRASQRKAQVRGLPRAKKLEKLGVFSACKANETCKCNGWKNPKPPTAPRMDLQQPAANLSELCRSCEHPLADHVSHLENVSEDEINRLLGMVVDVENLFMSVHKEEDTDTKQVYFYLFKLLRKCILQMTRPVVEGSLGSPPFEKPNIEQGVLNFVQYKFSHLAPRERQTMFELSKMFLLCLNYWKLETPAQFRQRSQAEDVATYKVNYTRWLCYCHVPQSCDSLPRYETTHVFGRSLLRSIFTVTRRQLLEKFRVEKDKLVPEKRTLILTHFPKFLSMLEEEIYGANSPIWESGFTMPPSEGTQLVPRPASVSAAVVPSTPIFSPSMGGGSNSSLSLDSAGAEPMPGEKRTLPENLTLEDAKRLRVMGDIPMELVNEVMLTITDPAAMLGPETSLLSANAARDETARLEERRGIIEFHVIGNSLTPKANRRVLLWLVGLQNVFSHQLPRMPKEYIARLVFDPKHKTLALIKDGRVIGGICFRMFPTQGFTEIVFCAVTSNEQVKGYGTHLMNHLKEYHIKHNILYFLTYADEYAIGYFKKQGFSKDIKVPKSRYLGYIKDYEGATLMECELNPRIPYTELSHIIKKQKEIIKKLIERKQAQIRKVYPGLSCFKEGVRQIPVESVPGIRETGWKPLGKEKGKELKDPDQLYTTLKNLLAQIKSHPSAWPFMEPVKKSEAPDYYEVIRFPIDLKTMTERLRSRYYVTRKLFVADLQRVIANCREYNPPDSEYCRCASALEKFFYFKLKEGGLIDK
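Compounds, pin-transferred from DMSO stocks, meet 20nM GCN5L2 for 15 min before the reaction begins with H3(1-25) peptide (75uM) and acetyl-CoA (70uM). Thiol-reactive ThioGlo1 reports CoA release over 20 min at room temperature.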
DT40 TDP1 CPT = DT40-hTDP1 cell growth loss with CPT. chicken DT40 Tdp1-/-;hTDP1 cells + 20 nM CPT, ATP luminescence, 48 h. Potency, µM (titrated, usually from 46.2 µM), for inactives: at the highest dose activity change, negative = growth inhibition, most hits filed as inhibitors. actives 12% (n = 420,000). AID 686979; also: nearly all actives have a fitted effect of over 55% in size
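Chicken DT40 Tdp1-/- cells stably complemented with human TDP1 were seeded at 400 cells/well in medium containing 20 nM camptothecin, exposed to pin-transferred compounds, and grown at 37 °C for at least 48 hr. Viability was read as ATP luminescence.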
Active calls of the source: *; ? = inconclusive; / = not tested or not shown; & = joins results of further samples; [ ] = dose if it differs, or a comment. Calls follow the shape of the dose curve; as a rule, active = well fitted curve in the direction sought with a large enough effect; inconclusive = small, poorly fitted or top-dose-only effect, or another doubt; inactive = no such curve, though single readings can be large; an effect the other way counts as inactive or inconclusive. % is scaled to controls: 0 for no effect and ±100 for the full control effect; potency is read from the fitted curve at half-maximal effect. A portion of the library, and most or all hits are left out here.

SMILES | GCN5L2 inh | DT40 TDP1 CPT
CC(C)CCn1c(=O)c2ccccc2n2c(CCC(=O)NC3CCN(Cc4ccccc4)CC3)nnc12 | -4% | ?
O=C(Cc1cccs1)N1CCC(c2nc3c(nnn3Cc3ccc(F)cc3)c(=O)[nH]2)CC1 | -7% | -21%
c1cnn(-c2cncc(-n3cccn3)n2)c1 | -2% | -11%
O=C(O)C1CCCCC1C(=O)Nc1cccc2ccccc12 (stereo unspecified) | 1% | 16µM*
Cn1cccc1/C=N/NC(=O)Cc1cccs1 | -4% | 8%
CC(=O)c1ccc(NC(=O)c2sc(-n3nc(C)c(CCC(C)C)c3C)nc2C)cc1 | -8% | -70%
CCCCNC(=S)N(C)/N=C/c1ccccc1C(=O)O | -1% | -3%
O=C(O)c1cccnc1Sc1ccccc1Cl | -1% | -7%
Cc1ccc(NS(=O)(=O)c2ccccc2F)cc1S(=O)(=O)N1CCCCC1 | -3% | -18%
CC(=O)N/N=C(\C)CC(=O)Nc1cccc2c1CCCC2 | 0% | 13%
CCCc1cc2c(=O)c(-c3ccc4c(c3)OCCO4)c(C)oc2cc1OS(C)(=O)=O | -17% | 18µM*
CNC(=S)N(Cc1ccc2c(c1)OCO2)C1CC(=O)N(c2ccccc2)C1=O (stereo unspecified) | 2% | ?
S=C(NCc1ccco1)NC1CCCc2ccccc21 (stereo unspecified) | -5% | ?
CCC(C)NC(=S)Nc1ccc(F)cc1 (stereo unspecified) | 4% | -23%
CCC(C(=O)N1CCN(c2ccccc2OC)CC1)c1ccccc1 (stereo unspecified) | -2% | -29%
O=C(Cn1c(=O)n(CCC(=O)N2CCCCC2)c(=O)c2sccc21)NCc1ccccc1 | -1% | -10%
Cc1ccc(NC(=O)c2nc[nH]c2C(=O)N2CCN(C(=O)OC(C)(C)C)CC2)cc1 | -2% | ?
CCOc1ccc(C(=O)NCCN2CCCC2)cc1 | ? | -9%
CCN(NC(=O)C(O)(c1ccccc1)c1ccccc1)C(=O)c1ccccc1 | -10% | 13%
CCOCCCNC(=O)c1ccc2c(=O)n(Cc3ccc(OC)cc3)c(=O)[nH]c2c1 | -1% | ?
Cc1ccc(S(=O)(=O)N(C)c2ccc(C(=O)Nc3ccc(C)cn3)cc2)cc1 | -7% | ?
Cc1cc(C(=O)Nc2cc(C)on2)on1 | ? | 15%
CCN(CC)CCN1C(=O)C(=O)/C(=C(/O)c2c(C)[nH]c(C(=O)OC)c2C)C1c1ccco1 (stereo unspecified) | 1% | -1%
O=C(/C=C/c1ccc(Br)cc1)NC(=S)N1CCOCC1 | 0% | -2%
C=CCN(c1nc(C)cc(OC)n1)S(=O)(=O)c1ccc(C)cc1 | 0% | -29%
COc1cccc(C(=O)NCCNC(=O)c2cnccn2)c1 | 2% | 22%
CC(C)[C@@H](CO)NC(=O)c1ccc2c3n(nc2c1)-c1ccccc1CO3 | 3% | ?
COc1ccc(OC)c(CNC(=O)c2cc(=O)[nH]c3ccc(S(=O)(=O)N4CCCCC4C)cc23)c1 (stereo unspecified) | -1% | ?
COC(=O)C1C2CC3c4[nH]c5cc(OC)ccc5c4CCN3CC2CC(O)C1OC (stereo unspecified) | / | 8%
CNC(=O)N(O)C1N(/N=C/c2ccccc2OC)C(=S)SC1(C)C (stereo unspecified) | -15% | 23%
O=C(CC1C(=O)NCCN1Cc1ccc(F)c(F)c1)NCCn1cccn1 (stereo unspecified) | -1% | -2%
O=C(NC1CCCCC1)c1ccc(Cn2cc(Cl)cn2)cc1 | 0% | -6%
Cc1ccc2c(c1)CCCN2C(=O)CSc1ccccc1 | -16% | 5%
Cc1ccc(SCC(=O)OCC(=O)N2CCN(C(=O)c3ccco3)CC2)c(C)c1 | -6% | -6%
Cn1c(NC(=O)c2ccccc2Br)cc(=O)n(C)c1=O | 2% | -9%
Cc1ccc(C)c(N2CCN(C(=O)CCc3c(C)nc4c(c3C)c(=O)n(C)c(=O)n4C)CC2)c1 | 2% | -2%
CCN(CC)C(=O)CSc1nnc2nnc3cc(Cl)ccc3n12 | -7% | -19%
CC(C)c1ccc(OCC(=O)NCc2ccccc2)cc1 | -4% | -8%
CCOC(=O)c1ccc(NC(=O)c2oc(=O)c3ccccc3c2-c2ccccc2)cc1 | 4% | ?
COc1ccc(Br)cc1CN(C)CC(=O)Nc1c(Cl)cccc1Cl | -3% | ?
O=C1C2CC=CCC2C(=O)N1c1n[nH]c(-c2ccccc2)n1 (stereo unspecified) | 0% | 5%
CCNc1nc(Cl)nc(N(NC(C)=O)C(C)C)n1 | -1% | 12%
Cc1ccc(S(=O)(=O)/N=C(/Nc2ccc3[nH]c(=O)[nH]c3c2)c2ccccc2)cc1 | -1% | 3%
CS(=O)(=O)Nc1nnc(C2CCCC2)s1 | 26% | 1%
O=[N+]([O-])c1ccc(OCCN2CCCCCC2)cc1 | 32%[activator] | 4%
COC(c1ccccc1)c1nnc(CCC(=O)N2CCN(Cc3cccs3)CC2)o1 (stereo unspecified) | -9% | 5%
O=S(=O)(Cc1ccccc1)Nn1cnnc1 | -18% | -6%
O=C(Cn1cnc2c(NCc3ccccc3)ncnc21)NCCCN1CCCC1=O | 2% | -1%

2 entries from above, reformatted:
Each structure is followed by: GCN5L2 inh | DT40 TDP1 CPT
> CCOC(=O)c1ccc(NC(=O)c2oc(=O)c3ccccc3c2-c2ccccc2)cc1
  4% | ?
> COc1ccc(Br)cc1CN(C)CC(=O)Nc1c(Cl)cccc1Cl
  -3% | ?

Additional structures.
SMILES | GCN5L2 inh | DT40 TDP1 CPT
O=C(Cn1nnc2ccccc2c1=O)Nc1cccc(S(=O)(=O)N2CCOCC2)c1 | -28% | -21%
CCCOc1ccccc1C1CC(=O)NC(C)=C1C(=O)OCC(C)C (stereo unspecified) | -8% | 21µM*
Cc1ccc(NC(=O)CCCN2C(=S)NC(C)(C)CC2C)cc1 (stereo unspecified) | -2% | 1%
O=C(CCC1CCCN(Cc2ccc3c(c2)OCCO3)C1)NCc1ccc(F)c(F)c1 (stereo unspecified) | -3% | -26%
O=C(Nc1cccc(C(=O)O)c1)/C(=C\c1ccccc1)NC(=O)c1ccccc1 | -6% | 7%
COc1ccc(CNCC(C)NCc2ccc(OC)c(OC)c2)cc1OC (stereo unspecified) | -1% | ?
O=C(Cn1cnc2cc([N+](=O)[O-])ccc2c1=O)Nc1ccc2c(c1)CCC2 | 0% | -30%
COc1ccc2nc(NC(=O)CCNS(=O)(=O)c3ccc4c(c3)oc(=O)n4C)sc2c1 | -1% | -27%
NS(=O)(=O)c1cc(Cl)c(NC(=O)COC(=O)c2ccccn2)c(Cl)c1 | -4% | -11%
CNC(=O)CSc1nnc(-c2cccnc2)n1-c1ccc(C)cc1 | 1% | 17%
CCOC(=O)C1CCN(C(=S)Nc2cccc(C)c2C)CC1 | 4% | 14%
O=C(O)c1cccc(N2CCCCS2(=O)=O)c1 | -17% | -24%
O=C(CSc1nc2ccc(Cl)cc2[nH]1)Nc1ccc2c(c1)CCC2 | -5% | ?
Cc1ccc(CSc2ccc3nnc(-c4ccccn4)n3n2)cc1 | -2% | 12µM*
Cc1ccc(C(=O)Nc2c(C(=O)NCc3ccco3)cnn2-c2ccccc2)cc1 | 0% | ?
Cc1cccc(NC(=S)NC(=O)CCc2ccccc2)c1 | 3% | -17%
Cc1ccc(S(=O)(=O)N(C)C[C@@H]2Oc3c(NS(C)(=O)=O)cccc3C(=O)N([C@H](C)CO)C[C@@H]2C)cc1 | 1% | -1%
Cc1ccc(NC(=O)c2csc3c2CCCC3)cc1 | -4% | 0%
COc1ccc(N(C(=O)Cn2nnc(-c3ccc(Cl)cc3)n2)C(C(=O)NCC2CCCO2)c2ccc(C)cc2)cc1 (stereo unspecified) | -1% | -78%
CCN(CC(=O)Nc1c(F)cccc1F)C(=O)C1CCN(S(=O)(=O)c2ccc(C)c(C)c2)CC1 | 1% | -7%
O=C(COc1ccc(S(=O)(=O)N2CCOCC2)cc1Cl)NCC1CCCO1 (stereo unspecified) | 2% | -2%
CN(C)CCCNC1=CC(=O)CC(c2ccccc2)C1 (stereo unspecified) | -9% | 3%
O=C(Nc1ccccc1C(=O)N1CCCCCC1)c1cccc([N+](=O)[O-])c1 | -1% | -12%
COC(=O)C1=C(C(=O)OC)[C@@H]2N(C)c3ccccc3[C@@]23C[C@@H](CO)N(C(=O)NCCBr)C3=N1 | -22% | ?

Filtered by structure, the compounds so far with a thiophene ring, fused or not
SMILES | GCN5L2 inh | DT40 TDP1 CPT
O=C(Cc1cccs1)N1CCC(c2nc3c(nnn3Cc3ccc(F)cc3)c(=O)[nH]2)CC1 | -7% | -21%
Cn1cccc1/C=N/NC(=O)Cc1cccs1 | -4% | 8%
O=C(Cn1c(=O)n(CCC(=O)N2CCCCC2)c(=O)c2sccc21)NCc1ccccc1 | -1% | -10%
COC(c1ccccc1)c1nnc(CCC(=O)N2CCN(Cc3cccs3)CC2)o1 (stereo unspecified) | -9% | 5%
Cc1ccc(NC(=O)c2csc3c2CCCC3)cc1 | -4% | 0%

Back to the main list, repeating the five entries before the break.
SMILES | GCN5L2 inh | DT40 TDP1 CPT
CCN(CC(=O)Nc1c(F)cccc1F)C(=O)C1CCN(S(=O)(=O)c2ccc(C)c(C)c2)CC1 | 1% | -7%
O=C(COc1ccc(S(=O)(=O)N2CCOCC2)cc1Cl)NCC1CCCO1 (stereo unspecified) | 2% | -2%
CN(C)CCCNC1=CC(=O)CC(c2ccccc2)C1 (stereo unspecified) | -9% | 3%
O=C(Nc1ccccc1C(=O)N1CCCCCC1)c1cccc([N+](=O)[O-])c1 | -1% | -12%
COC(=O)C1=C(C(=O)OC)[C@@H]2N(C)c3ccccc3[C@@]23C[C@@H](CO)N(C(=O)NCCBr)C3=N1 | -22% | ?
COc1ccc(NC2=NCCC(=O)N2Cc2cccs2)cc1 | 6% | 1%
CCCN1C(=O)C2(C(C(=O)c3ccc(C)o3)=C(O)C(=O)N2CCCN2CCOCC2)c2ccccc21 (stereo unspecified) | 0% | -3%
CCCCCn1c(SCc2cccc(C)c2)nc2c1c(=O)[nH]c(=O)n2C | -3% | ?
O=C(CSc1n[nH]c(-c2ccccc2)n1)c1ccccc1 | -1% | ?
CCN(CC)S(=O)(=O)c1ccc(N2CCN(C)CC2)c(NC(=O)Nc2ccccc2F)c1 | -3% | ?
O=C(N/N=C\c1ccc(F)cc1)c1ccc(Cn2cc(Br)c([N+](=O)[O-])n2)o1 | -21% | ?
Cc1cccc(C)c1NC(=O)N1CC(C)OC(C)C1 (stereo unspecified) | 0% | -2%
COc1ccc(/C=C\C(=O)c2c(O)ccc3c(C)cc(=O)oc23)cc1 | -1% | -28%
CCCN1C(=O)c2ccc(C(=O)NC3CCCCC3)cc2C1=O | -6% | 1%
COc1cc(/C=C2\SC(=S)N(CC(=O)O)C2=O)ccc1OS(=O)(=O)c1ccc(C)cc1 | -27% | -20%
COc1ccc(-c2nnc(S/C(=C/c3ccc(Cl)cc3)C(=O)O)o2)cc1 | -5% | 8%
COc1ccc(OCC(=O)N2CCN(C(=O)c3cccc(OC)c3)CC2)cc1 | -2% | /
O=C(Nc1ccccc1)C1CCN(C(=O)c2ccccc2)CC1 | -1% | 1%
CCC(C)n1c(=N)c(S(=O)(=O)c2ccc(C)cc2)cc2c(=O)n3cc(C)ccc3nc21 (stereo unspecified) | -4% | /
Cc1ccc(S(=O)(=O)Nc2ccc3nc(-c4cccc(Cl)c4)oc3c2)cc1 | -16% | ?
Cc1ccc(N(Cc2ccccc2)C(=O)c2cc(S(=O)(=O)N3CCOCC3)ccc2N2CCCC2)cc1 | -4% | 21µM*
Cc1ccc(CNC(=O)C2CCCN(c3nc4ccsc4c(=O)s3)C2)cc1 (stereo unspecified) | -4% | ?
Cc1cc2oc(C(=O)N(Cc3cccs3)C3CCS(=O)(=O)C3)cc(=O)c2cc1Cl (stereo unspecified) | -2% | -21%
O=C(CCSc1nc(-c2ccco2)cc(C(F)(F)F)n1)NCc1cccs1 | -1% | 16µM*
CCSc1nc(O)c(CC)c(=O)n1C(C)CC (stereo unspecified) | -2% | -7%
Cc1cc(C)nc(NC(=O)CSc2nc3cc(Cl)ccc3s2)n1 | -20% | -7%
CCOc1ccc(NC(=O)CCNc2c(N3CCCC3)c(=O)c2=O)cc1 | -4% | -6%
O=C(CCS(=O)(=O)c1ccc(F)cc1)Nc1ccc(N2CCN(Cc3ccccc3)CC2)cc1 | 1% | ?
Cc1sc2ccccc2c1CNC[C@H]1O[C@@H](n2cnc3c(N)ncnc32)[C@H](O)[C@@H]1O | 3% | -9%
CCOCCCn1c(SCC(=O)Nc2ccc(F)cc2)nc2c(sc3ccccc32)c1=O | 4% | -30%
CCc1ccc(NC(=O)C(C)OC(=O)CC(NC(C)=O)c2ccccc2)cc1 (stereo unspecified) | -5% | 5%
Cc1c(OCC(=O)NCCCN2CCOCC2)ccc2c3c(c(=O)oc12)CCCC3 | -4% | -18%
COC(=O)c1ccc(-c2ccco2)n1Cc1ccccc1Cl | -7% | 12%
CCCc1nc2sc3c(c2c(=O)n1NC(=O)CCCl)CCCC3 | -3% | ?
O=C(CSCc1ccc(Cl)cc1)N/N=C/c1ccccc1 | -21% | -21%
CCOC(=O)Cn1c(Br)nc2c1c(=O)[nH]c(=O)n2C | 1% | -2%
Cn1c(=O)oc2cc(S(=O)(=O)Nc3ccc(C(=O)O)cc3)ccc21 | -5% | 14%&-6%
